Assay outcomes deposited in PubChem by National Center for Advancing Translational Sciences (NCATS).
GLA inh pH 4.5 – qHTS Assay for Inhibitors of Human alpha-Galactosidase at pH 4.5; Alpha-galactosidase A (Homo sapiens), P06280; purified enzyme, 4-MU-alpha-Gal fluorescence, pH 4.5; activity change, negative = inhibition, % at 105 µM; 230,000 tested, under 10 active; inconclusive = small, poorly fitted or top-dose-only inhibition, or a rising curve; inactive = flat fitted curve, though single readings scatter; no compound was filed as active;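 also: 0% = full activity with enzyme and -100% = basal without enzyme; dose as in the result columns while the protocol names 77 µM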
Rango dissoc inh – qHTS Assay for Inhibitors of RanGTP induced Rango (Ran-regulated importin-beta cargo) - Importin beta complex dissociation; 0.071% of 340,000 active; Potency, µM (series often up to 46.1 µM), without a hit: at the highest dose activity change, negative = inhibition; Biochemical FRET Rango-importin beta, RanGTP-induced dissociation; active means falling FRET ratio curve, often poorly fitted, with flat reads before Ran was added; inconclusive means other falling curves, or compound fluorescence or quenching; inactive means flat or rising ratio curve;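 also: potency is read from the fitted curve at half-maximal effect; % of control where 0% means no effect; nearly all actives have a fitted effect of over 45% in size; -100% = wells without RanGTP and RCC1; the record marks most hits as doubtful in a second field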
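Compounds preincubate 5 min with complex of recombinant Rango and importin beta in PBS with 1 mM DTT. Ran (0.6 uM) loaded with 2 mM GTP plus 0.2 uM RCC1 starts dissociation; FRET is recorded 45 min later.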
miR-21 reporter – qHTS Assay for Modulators of miRNAs and/orActivators of miR-21 | Potency, µM (doses to about 38.3 µM), for the others: at the highest dose reporter change, positive = more light | 340,000 tested, under 10 active | HeLa miR-21 FLuc reporter, luciferase, 48 h; active = well fitted rising curve with a large enough effect; inconclusive = small, poorly fitted or top-dose-only effect; inactive = no such curve, though single readings can be large or run the other way;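 also: % of control where 0% means no effect; miR-21 action dims this reporter so a rising signal means less miR-21 action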
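HeLa cells stably expressing CMV-driven firefly luciferase with a downstream miR-21 binding sequence, endogenously expressing miR-21, were treated with titrations (up to about 40uM final) for 48 hours at 37 degree Celsius. Luciferase luminescence was read after lysis.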
Rango complex inh – qHTS Assay for Inhibitors of Rango (Ran-regulated importin-beta cargo) - Importin beta complex formation. Importin subunit beta-1 (Homo sapiens), Q14974. Rango CFP/YFP FRET sensor + importin beta, 45 min. Potency, µM (titrated, usually from 92.2 µM), for the others: top-dose inhibition of complex formation. 0.031% of 340,000 active. AID 540263, 2011; active = rising FRET ratio curve, often small or poorly fitted; inconclusive = mostly compound fluorescence or quenching in the first reads; inactive = flat curves in all reads;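 also: potency is read from the fitted curve at half-maximal effect; 0% = DMSO wells and 100% = buffer wells lacking importin beta; nearly all actives have a fitted effect of over 15% in size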
Target sequence (Q14974 whole entry, looked up): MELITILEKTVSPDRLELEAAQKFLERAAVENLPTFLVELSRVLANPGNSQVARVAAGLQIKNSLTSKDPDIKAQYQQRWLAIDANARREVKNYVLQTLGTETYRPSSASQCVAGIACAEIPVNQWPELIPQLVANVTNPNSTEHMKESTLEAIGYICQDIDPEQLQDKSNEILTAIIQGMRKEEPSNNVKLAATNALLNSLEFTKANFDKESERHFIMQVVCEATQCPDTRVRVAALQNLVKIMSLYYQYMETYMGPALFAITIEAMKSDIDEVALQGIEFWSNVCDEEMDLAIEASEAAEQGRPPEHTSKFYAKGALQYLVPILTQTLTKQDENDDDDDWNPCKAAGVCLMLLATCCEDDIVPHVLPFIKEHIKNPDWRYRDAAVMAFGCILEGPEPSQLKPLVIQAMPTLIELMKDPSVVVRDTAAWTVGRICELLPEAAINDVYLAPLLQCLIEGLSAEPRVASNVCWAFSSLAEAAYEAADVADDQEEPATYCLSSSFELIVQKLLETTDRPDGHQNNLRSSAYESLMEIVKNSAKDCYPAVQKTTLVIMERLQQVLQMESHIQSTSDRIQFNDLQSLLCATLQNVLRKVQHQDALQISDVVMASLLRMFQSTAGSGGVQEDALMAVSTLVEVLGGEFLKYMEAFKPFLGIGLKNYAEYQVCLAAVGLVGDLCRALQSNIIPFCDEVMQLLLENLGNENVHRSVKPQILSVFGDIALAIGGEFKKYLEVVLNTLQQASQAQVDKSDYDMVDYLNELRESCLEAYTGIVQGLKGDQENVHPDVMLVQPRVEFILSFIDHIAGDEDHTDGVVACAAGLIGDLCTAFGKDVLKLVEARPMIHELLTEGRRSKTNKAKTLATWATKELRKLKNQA
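FRET biosensor Rango (snurportin 1 IBB between N-terminal EYFP and C-terminal Cerulean), 50 nM in PBS/1 mM DTT/0.02% Tween-20/0.1% BSA, preincubated 5 min RT with compound; 0.125 microM importin beta added, 45 min RT, CFP/YFP FRET ratio read.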
* hit, by the source's call; u = inconclusive; x = no result given; & = joins results of further samples; [ ] = another dose, or the depositor's remark.

The opening six records as a preview:
SMILES	GLA inh pH 4.5	Rango dissoc inh	miR-21 reporter	Rango complex inh
CCCCCC(=O)Nc1cc(S(=O)(=O)N2CCOCC2)ccc1N1CCCC1	x	0%	-2%	-2.3%
CCOC(=O)CC1C(C(=O)OCC)ON2OC(C(=O)OC)C(C(=O)OCC)C12 (centres undefined)	10	-4%	-2%	-1.1%
COC(=O)[C@H](Cc1ccccc1)NC(=O)N(C)Cc1ccccc1	-1	13%	-14%	-1.3%
CCOC(=O)C(Cc1c[nH]c2ccccc12)NC(=O)CNC(C)=O (centres undefined)	3	-2%	0%	0.2%
COC(=O)CC(NC(=O)c1ccc(C)cc1)c1ccc2c(c1)OCO2 (centres undefined)	5	-6%	-10%	-1.4%
CC(C)CC(=O)Nc1ccc(Cc2ccncc2)cc1	x	15%	-6%	-1.8%

The whole of this part, from the start:
SMILES	GLA inh pH 4.5	Rango dissoc inh	miR-21 reporter	Rango complex inh
CCCCCC(=O)Nc1cc(S(=O)(=O)N2CCOCC2)ccc1N1CCCC1	x	0%	-2%	-2.3%
CCOC(=O)CC1C(C(=O)OCC)ON2OC(C(=O)OC)C(C(=O)OCC)C12 (centres undefined)	10	-4%	-2%	-1.1%
COC(=O)[C@H](Cc1ccccc1)NC(=O)N(C)Cc1ccccc1	-1	13%	-14%	-1.3%
CCOC(=O)C(Cc1c[nH]c2ccccc12)NC(=O)CNC(C)=O (centres undefined)	3	-2%	0%	0.2%
COC(=O)CC(NC(=O)c1ccc(C)cc1)c1ccc2c(c1)OCO2 (centres undefined)	5	-6%	-10%	-1.4%
CC(C)CC(=O)Nc1ccc(Cc2ccncc2)cc1	x	15%	-6%	-1.8%
O=C(c1ccc(Br)cc1)N1CCCC1	10	2%	-8%	-0.3%
COc1ccc2[nH]c(=O)c(-c3nnn(-c4ccccc4)n3)cc2c1	2	-26%	-16%	u
CCOC(=O)c1[nH]nc(-c2cc(CC)c(O)cc2O)c1-c1cscn1	1	0%	27%	-3.5%
Fc1ccc(NC(=S)NCc2cccs2)cc1	-5	-6%	-2%	-0.9%
COc1ccc(OCCNC(=O)Nc2cc(F)c(F)cc2Cl)cc1	-25	-11%	-2%	-0.7%
COC(=O)C(C)(N)Cc1ccc(O)cc1 (centres undefined)	-6	u	x	u

A section of the results above, for reference:
SMILES	GLA inh pH 4.5	Rango dissoc inh	miR-21 reporter	Rango complex inh
CCCCCC(=O)Nc1cc(S(=O)(=O)N2CCOCC2)ccc1N1CCCC1	x	0%	-2%	-2.3%
CCOC(=O)CC1C(C(=O)OCC)ON2OC(C(=O)OC)C(C(=O)OCC)C12 (centres undefined)	10	-4%	-2%	-1.1%
COC(=O)[C@H](Cc1ccccc1)NC(=O)N(C)Cc1ccccc1	-1	13%	-14%	-1.3%

New compounds follow:
SMILES	GLA inh pH 4.5	Rango dissoc inh	miR-21 reporter	Rango complex inh
Cc1c(/C=N/NC(=O)c2sc3ccccc3c2Cl)cnn1C	3	-4%	1%	1.4%
N#Cc1ccc(CN2CCN(C(=O)c3cc(C4CC4)nn3-c3ccccc3)CC2)cc1	x	15%	x	-2.7%
COc1cc(NC(=O)CN2CCN(c3ccccc3O)CC2)c(C)cc1[N+](=O)[O-]	4	5%	6%	3.6%
O=C(Nc1ccc(S(=O)(=O)N2CCCC2)cc1)C1CC(=O)N(c2ccccc2)C1 (centres undefined)	-6	2%	0%	-2.3%
Cc1nn(C)c(C(=O)Sc2ccccc2)c1[N+](=O)[O-]	-1	16%	3%	-0.2%
Nc1ncnc2nc(N3CCN(C(=O)c4ccccc4)CC3)[nH]c12	7	11%	1%	4.2%
COc1ccc(/C=C(\C#N)C(=O)C(C)(C)n2cncn2)cc1	3	-13%	-3%	4.5%
CN1CCN(/N=C/c2nc(-c3ccccc3)n3ccccc23)CC1	-7	-2%	-23%	u
COc1ccc(Cl)cc1C(=O)Nc1nc2ccccc2[nH]1	x	4%	23%	-3.4%
CCc1ccc(C2CC(c3ccccc3)Nc3nc(N)nn32)cc1 (centres undefined)	3	u	-2%	u
O=C(C1CCCN(S(=O)(=O)c2cccc3nsnc23)C1)N1CCN(c2ccccn2)CC1 (centres undefined)	-3	-2%	28%	8.9%
C=CCN1C(=O)C2(NC(=O)c3ccccc3N2)c2ccccc21 (centres undefined)	5	9%	21%	1.5%
Cc1cccc(NC(=O)c2cnccn2)c1	x	-6%	-29%	4.3%
CCOC(=O)N1C(=O)c2cc(OC)ccc2S1(=O)=O	-15	-4%	2%	-2.8%
CCCCNC(=O)c1cc2cc(CC)ccc2[nH]1	8	8%	-9%	-4.9%
COCc1cc(C)nc2sc(C(=O)OC)c(N)c12	-8	-28%	-9%	u
O=c1[nH]c2ccccc2n1CCCSCCCn1c(=O)[nH]c2ccccc21	-8	1%	u	-0.8%
O=C(c1cccc(OC2CCN(Cc3cc(F)cc(F)c3)CC2)c1)N1CCCC1	x	0%	2%	0.2%
COc1ccc(NC(=O)c2cccc(N3C(=O)C4C5C=CC(C6CC56)C4C3=O)c2)cc1 (centres undefined)	x	7%	29%	0.4%
O=c1[nH]c(C2CCN(S(=O)(=O)Cc3ccccc3)CC2)nc2c1nnn2Cc1ccccc1	x	2%	0%	2.1%
NNc1nc2c(Cl)cccc2s1	2	-15%	-44%	u
O=C(Nc1ccccc1Cc1ccccc1)c1ccccc1F	x	u	-4%	-0.7%
C(=N\Nc1nc(N2CCOCC2)nc(N2CCOCC2)n1)/c1cccnc1	-3	17%	-5%	-1.0%
CCc1nc(N)nc(N)c1-c1ccc(Cl)cc1	7&-7&2	8%	17%	-3.1%
COCCn1nnnc1C1(N(Cc2cc3cc(C)ccc3[nH]c2=O)CC2CCCO2)CCN(C)CC1 (centres undefined)	-1	-9%	-7%	-0.2%
Cc1nc2nc(C)c(CCC(=O)NC3CCCCC3)c(C)n2n1	0[21.1 µM]	-11%	2%	3.9%
Cc1cc(C)n(CCO)c(=O)n1	-1	-10%	-3%	2.5%
CC(=O)c1ccc(NC(=O)Nc2sc(NS(=O)(=O)c3ccccc3)nc2C)cc1	-7	-3%	-3%	-0.3%
Cc1cc(F)ccc1S(=O)(=O)Nc1ccccc1C(=O)Nc1ccccc1N1CCOCC1	0	5%	4%	0.0%
COc1cccc2c(=O)n(CC(=O)N3CCC(C)CC3)ccc12	4	23%	-4%	-1.0%
Cn1cc([C@@H]2C[C@H]3CN(C4CCCC4)C(=O)[C@]34CCCN24)c(-c2ccccc2)n1	-10	10%	-5%	-1.7%
CCN(CC)C(=O)c1cn(CCC#N)nc1-c1ccc2ccccc2c1	x	12%	-5%	-0.2%
CNC(=O)c1[nH]nc2c1CCc1ccccc1-2	x	2%	-18%	-0.7%
O=C(CCC(=O)N1CCOc2ccccc21)Nc1cc(F)ccc1F	x	u	0%	-4.0%
O=C(Cn1[nH]c(=O)c2ccccc2c1=O)NNC(=O)c1ccccc1	18	7%	-2%	3.8%
COc1ccc(C(=O)CSc2nnc(-c3cc(C)on3)o2)cc1	1	0%	-11%	u
O=C1COc2ccc(S(=O)(=O)N3CCc4ccccc43)cc2N1	-12	3%	7%	3.0%
CCNc1nc(NCC)n2c(SCC(=O)Nc3cccc(Cl)c3)nnc2n1	x	44%	x	1.5%
COc1ccc(CN(C(=O)c2cccc(OC)c2)C2CCS(=O)(=O)C2)cc1 (centres undefined)	-4	22%	-1%	-0.5%
CCOc1ccc(C(CC(=O)O)NS(=O)(=O)c2ccc(C)cc2)cc1OC (centres undefined)	12	0%	-1%	-1.1%
Cc1cccc(C(=O)NC(C(=O)Nc2cccc(S(=O)(=O)N3CCCC3)c2)C(C)C)c1 (centres undefined)	x	-9%	x	-2.4%
COc1cccc(-c2nc(N)nc(SC)c2C#N)c1	-5	-13%	-17%	-3.4%
COc1ccc(OC)c2c1sc(=NC(=O)c1cccc(N3C(=O)CCC3=O)c1)n2C	-1	4%	-6%	-3.7%
CN(C)S(=O)(=O)c1cccc(NC(=O)COC(=O)/C=C/c2ccco2)c1	-1	-3%	0%	0.1%
COc1ccc(/C=C/C(=O)OCC(=O)Nc2ccc3c(c2)OCO3)cc1	x	-9%	x	-1.0%
COc1ccccc1N(CC(=O)NCC1CCCO1)C(=O)Cn1nnc(-c2cccs2)n1 (centres undefined)	4	-11%	0%	-0.1%
O=C(NNC(=O)c1ccccc1Br)c1ccncc1	x	-4%	-10%	0.0%
CCOC(=O)c1sc(NC(=O)c2cc(S(=O)(=O)N3CCOCC3)ccc2C)nc1C	-6	4%	-4%	4.7%
COc1cc(C(=O)COC(=O)c2ccco2)cc(OC)c1OC	x	1%	x	-1.4%
CCOc1ccc2oc(C(=O)Nc3nccs3)c(C)c2c1	x	0%	x	u
Cc1ccc(S(=O)(=O)CCC(=O)NCc2ccccc2Cl)cc1	0	-6%	-15%	u
CC(C)Oc1ccc(S(=O)(=O)N2CCOCC2)cc1NC(=O)c1nn(C)c(=O)c2ccccc12	x	-2%	x	-3.9%
CC1(C)Cc2c(c(N3CCOCC3)nc3sc4c(NCC5CCCO5)nnnc4c23)CS1 (centres undefined)	-14	-11%	2%	0.0%
O=C(NCCN1CCN(c2ccccc2)CC1)c1cccn2c(=O)c3ccccc3nc12	-4	-9%	-8%	u
Cc1nnc(-c2ccco2)c2cn(-c3cccc(Br)c3)nc12	6	-22%	16%	-2.1%
CCCN(C(=O)c1cc(S(=O)(=O)N2CCCCCC2)ccc1OC)C1CCS(=O)(=O)C1 (centres undefined)	x	3%	x	1.0%
COC(=O)c1ccc(C23CC4(C2)[C@H](CN(Cc2ccc(C(F)(F)F)cc2)[C@@H]4c2ccccc2)C3c2ccc(Cl)nc2)cc1 (some centres undefined)	0&-2	-11%	-1%	-1.8%
COCCCn1c(SCC(=O)N2CCc3ccccc32)nnc1-c1ccoc1C	x	1%	x	3.4%
CC1CCc2sc(C(=O)NC3CCCCC3)cc2C1 (centres undefined)	x	0%	x	-2.2%
Nc1nc(CSCc2ccccc2)nc(N2CCOCC2)n1	-12	6%	-48%	-1.2%
(listing goes on)
SMILES	GLA inh pH 4.5	Rango dissoc inh	miR-21 reporter	Rango complex inh
COc1ccccc1NC(=O)c1ccccc1C(=O)Nc1ccccc1OC	x	19%	1%	0.4%
Cc1ccccc1NC(=O)NC1CCS(=O)(=O)C1 (centres undefined)	x	-3%	-4%	-0.3%
CCOc1ccc(NC(=O)c2ccc(NC(=O)C3CCCO3)cc2)cc1 (centres undefined)	x	0%	-10%	1.7%
CCO[C@H]1OC(C(=O)O)=C[C@@H](c2ccc3c(c2)OCO3)[C@@H]1CCCO	12	u	-2%	-0.1%
CCC(C)Nc1c2c(nc3c(-c4ccccc4)c(C)nn13)CCC2 (centres undefined)	-23	2%	1%	-4.8%
Cc1cc(=O)nc2c3ccccc3n(CC(=O)NC(C)c3ccc4c(c3)OCCO4)n12 (centres undefined)	x	2%	-1%	-1.9%
Cc1ccc(NC(=O)CSCC(=O)N2CCOCC2)cc1	-5	-11%	-1%	2.1%
Cc1cc(C)n2nc(C(=O)OCC(=O)NNC(=O)c3ccc(Cl)cc3)nc2n1	x	13%	x	1.0%
C/C(Cc1ccccc1)=N\NC(=O)CNC(=O)c1ccccc1O	-5	0%	-5%	0.2%
Cc1nnc(NC(=O)c2ccc(S(=O)(=O)N3CC(C)CC(C)C3)cc2)o1 (centres undefined)	x	-1%	17%	u
Cc1ccc(-c2cnn(-c3cccc(C(F)(F)F)c3)c2N)cc1	-2	-3%	-36%	-0.2%
Cn1cccc1C(NC(=O)c1ccccc1)C(Cl)(Cl)Cl (centres undefined)	x	-15%	0%	4.2%
COc1ccc(/C=N/NC(=O)c2cccc(NC(=O)c3ccc(F)cc3)c2)c(C(=O)O)c1OC	-2	10%	-3%	0.0%
Cc1ccc(CNC(=O)c2ccc(N3CCC4(CC3)CC(c3cccc(Br)c3)=NO4)c(NC(=O)c3ccco3)c2)cc1	x	-6%	x	-1.0%
CCOc1ccc(N(CC(=O)NCc2cccc(OC)c2)S(=O)(=O)c2c(C)noc2C)cc1	-12	2%	-2%	6.1%

An excerpt; rates above refer to the full screens.
